Cruzain noTriton = qHTS Assay for Promiscuous and Specific Inhibitors of Cruzain (without detergent); Cruzipain (Trypanosoma cruzi), P25779; purified cruzain, Z-FR-AMC fluorescence, no detergent; Potency, µM, for inactives: max response, negative = inhibition, most hits filed as inhibitors; actives 2.3% (n = 200,000);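 also: plate controls were enzyme without inhibitor for no effect and buffer without enzyme for full effect; nearly all actives have a fitted effect of over 40% in size; top concentration of the series not given in the record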
Target sequence (P25779 123-467 limits assumed): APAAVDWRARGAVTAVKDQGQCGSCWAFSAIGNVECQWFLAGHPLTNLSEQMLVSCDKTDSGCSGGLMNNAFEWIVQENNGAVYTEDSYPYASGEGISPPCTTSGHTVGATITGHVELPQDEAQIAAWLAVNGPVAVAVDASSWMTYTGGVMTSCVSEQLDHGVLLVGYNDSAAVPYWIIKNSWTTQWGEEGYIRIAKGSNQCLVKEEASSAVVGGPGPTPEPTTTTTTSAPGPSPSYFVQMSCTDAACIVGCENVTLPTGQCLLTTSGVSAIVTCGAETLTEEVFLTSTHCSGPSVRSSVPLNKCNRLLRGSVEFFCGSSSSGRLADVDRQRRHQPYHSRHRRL
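Purified cruzain at 1.5 nM, pre-incubated 15 min with compound at room temperature in 100 mM sodium acetate pH 5.5, 5 mM DTT, 0.00005% Triton X-100. Reaction started with 2 uM Z-FR-AMC; AMC fluorescence increase over 60 s gives rate.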
MARV entry inh = qHTS for inhibitors of binding or entry into cells for Marburg Virus | Marburg virus pseudotyped entry inhibition, cell reporter; control for the full effect not named in the record; about a third of the inactives were read at about 46 µM | Potency, µM (highest dose often 37.8 µM), inactives show top-dose activity change, negative = inhibition, most hits filed as inhibitors | actives 1.8% (n = 300,000) | AID 540276, 2011; active = well fitted inhibition curve with a large enough effect; inconclusive = small, poorly fitted or top-dose-only effect, or effect the other way; inactive = flat fitted curve, though single readings scatter; tested in HEK293 cells; about a fifth of its hits are not listed in these tables; also: % is scaled to controls: 0 for no effect and ±100 for the full control effect; luciferase read-out
LASV entry inh = qHTS for Inhibitors of binding or entry into cells for Lassa Virus; Potency, µM (top dose mostly 37.9 µM), for inactives: at the highest dose activity change, negative = inhibition, hits mostly inhibitors; actives 1.2% (n = 300,000); Lassa virus pseudotype entry inhibition, cell reporter; control for the full effect not named in the record; active means well fitted inhibition curve with a large enough effect; inconclusive means small, poorly fitted or top-dose-only effect, or effect the other way; inactive means flat fitted curve, though single readings scatter; tested in HEK293 cells; also: % is scaled to controls: 0 for no effect and ±100 for the full control effect; nearly all actives have a fitted effect of over 50% in size; luciferase read-out
NS1 function inh = qHTS Assay for Inhibitors of Influenza NS1 Protein Function | S. cerevisiae slowed by influenza A NS1, growth recovery by OD600 | Potency, µM (titrated, usually from 46.1 µM), for inactives: at the top dose activity, positive = more growth | actives 0.4% (n = 270,000) | AID 2326, 2010; active means well fitted rising curve with a large enough effect; inconclusive means small, poorly fitted or top-dose-only effect; inactive means no such curve, though single readings can be large or run the other way; also: nearly all actives have a fitted effect of over 50% in size
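Compounds were scored for reversing the slow growth caused by influenza A NS1 in S. cerevisiae, measured by optical density at 600 nm. Assay medium contained 2% galactose at pH 6.0; NS1-free yeast of the same strain were the positive control.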
RE007 growth inh = qHTS Assay for Inhibitors of the HIV-1 protein Vpr. actives 0.21% (n = 360,000). AID 651644, 2012. Potency, µM (top dose mostly 92.2 µM), without a hit: at the highest dose activity change, negative = less growth. S. pombe RE007 Vpr strain, BacTiter-Glo ATP luminescence, 24 h; control for the full effect not named in the record; active = well fitted falling curve with a large enough effect; inconclusive = small, poorly fitted or top-dose-only effect; inactive = no such curve, though single readings can be large or run the other way;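 also: % is scaled to controls: 0 for no effect and ±100 for the full control effect; nearly all actives have a fitted effect of over 50% in size; the assay follows cell death caused by Vpr and the record does not say whether a fall means rescue or toxicity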
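Fission yeast strain RE007, carrying one chromosomally integrated HIV-1 vpr copy, was seeded at OD 0.01 in PMG+AL medium with 23 nL pinned compound. After 24 h at 30 °C and 99% humidity, viability was read by BacTiter-Glo luminescence.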
Cruzain Triton = qHTS Assay for Promiscuous and Specific Inhibitors of Cruzain (with detergent) | purified cruzain, Z-FR-AMC fluorescence, 0.01% Triton | Potency, µM, inactives show max response, negative = inhibition, usual class: inhibitors | actives 0.43% (n = 200,000) | AID 1478, 2009;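 also: plate controls were neutral wells for no effect and buffer without enzyme for full effect; nearly all actives have a fitted effect of over 40% in size; top concentration of the series not given in the record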
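15 min RT preincubation of 1.5 nM cruzain with compound, then 2 uM Z-FR-AMC added; kinetic AMC fluorescence, 60 s delta. Triton X-100 0.01%, pH 5.5.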
StopGo reporter = High Throughput Screening for Foot and Mouth Disease Virus Antivirals; Potency, µM (top dose mostly 57.9 µM), for the others: at the highest dose signal change, negative = less light; AID 1159524, 2015; human cells with a luciferase reporter of 2A StopGo recoding; control for the full effect not named in the record; actives 1.2% (n = 410,000); active = well fitted falling curve with a large enough effect; inconclusive = small, poorly fitted or top-dose-only effect; inactive = no such curve, though single readings can be large or run the other way; tested in HEK293T cells; also: % is scaled to controls: 0 for no effect and ±100 for the full control effect; nearly all actives have a fitted effect of over 45% in size; luciferase light after 4 h
SARS PLP yeast = qHTS of Yeast-based Assay for SARS-CoV PLP | S. cerevisiae expressing SARS-CoV PLpro, growth rescue; control for the full effect not named in the record | Potency, µM (series often up to 32.9 µM), without a hit: at the highest dose activity, positive = growth rescue | actives 0.19% (n = 330,000); active means well fitted rising curve with a large enough effect; inconclusive means small, poorly fitted or top-dose-only effect; inactive means no such curve, though single readings can be large or run the other way; also: 0% is about no effect; nearly all actives have a fitted effect of over 55% in size; growth read by luminescence after 48 h
Starred values were filed as active, the others as inactive; ? = inconclusive; · = not tested or not shown; & = joins results of further samples; [ ] = another dose, or the depositor's remark. Unless noted, calls follow the shape of the dose curve; as a rule, active = well fitted curve in the direction sought with a large enough effect; inconclusive = small, poorly fitted or top-dose-only effect, or another doubt; inactive = no such curve, though single readings can be large; an effect the other way counts as inactive or inconclusive. Potency is read from the fitted curve at half-maximal effect.

smiles	Cruzain noTriton	MARV entry inh	LASV entry inh	NS1 function inh	RE007 growth inh	Cruzain Triton	StopGo reporter	SARS PLP yeast
CCOc1ccc(NC(=O)Cn2c(CCC(=O)O)ccc2-c2ccc(C)cc2)cc1	8%	0%[46.1 µM]	0%[46.1 µM]	·	·	-7.2%	-12%	·
O=[N+]([O-])c1cc(S(=O)(=O)N2CCCC2)ccc1NN=C1CCCC1	0%	?	3%	9%	·	-6.0%	-21%	13%
CCN(C(=O)c1cn(CC)c(=O)c2cc(OC)c(OC)cc12)c1ccccc1C	5%	-3%[46.1 µM]	-3%	-7%	-9%	-1.9%	-9%	4%
COc1ccc(CCNS(=O)(=O)c2ccc3c(c2)OCCO3)cc1	-3%	19%	-28%	-30%	6%	2.9%	71%[activator]	-1%
Cc1ccc(C)c(NC(=O)C2CCCN(c3ncnc4onc(C)c34)C2)c1 (configuration not stated)	-6%	·	20%[46.1 µM]	·	·	-2.2%	-15%	·
CCOc1ccccc1NC(=O)C1C2C=CC(C2)C1C(=O)O (configuration not stated)	0%	21%	-2%	?	8%	12%	10%	-3%
CC1C(=O)N2CCCc3cc(S(=O)(=O)Nc4ccc(Br)cc4F)cc1c32 (configuration not stated)	24%	·	7%[46.1 µM]	·	·	0.0%	52%[activator]	·
COc1ccc(NC(=O)CCc2nc3ccccc3s2)c(OC)c1	·	-3%[46.1 µM]	10%[46.1 µM]	2%	13%	·	7%	1%
CCOc1cccc(C2/C(=C(/O)c3ccc4c(c3)CC(C)O4)C(=O)C(=O)N2Cc2cccnc2)c1 (configuration not stated)	·	14%[46.1 µM]	?	-20%	7%	·	-15%	21%
CC1CCN(c2nnc(-c3cccs3)c3ccccc23)CC1	-3%	0%	·	-27%	-6%	-6.6%	0%	-1%

Reprinted from the part before: 2 entries; new compounds follow.
smiles	Cruzain noTriton	MARV entry inh	LASV entry inh	NS1 function inh	RE007 growth inh	Cruzain Triton	StopGo reporter	SARS PLP yeast
CCOc1cccc(C2/C(=C(/O)c3ccc4c(c3)CC(C)O4)C(=O)C(=O)N2Cc2cccnc2)c1 (configuration not stated)	·	14%[46.1 µM]	?	-20%	7%	·	-15%	21%
CC1CCN(c2nnc(-c3cccs3)c3ccccc23)CC1	-3%	0%	·	-27%	-6%	-6.6%	0%	-1%
CCOC(=O)c1ccc(NC(=O)Nc2ccc(Cl)cn2)cc1	·	12%[46.1 µM]	-2%	·	-2%	·	-15%	0%
N#C/C(=C\c1cn(CCOc2ccccc2)c2ccccc12)C(=O)NCC1CCCO1 (configuration not stated)	21%	?	-12%	20%	-14%	-3.1%	-15%	-5%
O=C(NCCc1ccc(Cl)cc1)c1cnc2sc(N3CCCC3)nn2c1=O	2%	·	-4%[46.1 µM]	·	·	-0.5%	?	·
O=C(NNS(=O)(=O)c1ccccc1)C1CCN(S(=O)(=O)c2ccccc2)CC1	-1%	5%	17%	-1%	13%	1.6%	-6%	3%
CC(/C=N/Nc1ncc(C)c(=O)[nH]1)=C\c1ccccc1	·	?	1%	·	8%	·	-1%	3%
O=C(COc1ccc([N+](=O)[O-])cc1)NC(=O)NC1CCS(=O)(=O)C1 (configuration not stated)	·	11%	16%	·	7%	·	4%	-2%
CCOC(=O)C(C)n1cnc2c(nnn2Cc2ccc(Cl)cc2)c1=O (configuration not stated)	11%	-2%	?	-11%	21%	2.6%	-2%	8%
CN(/C=C/C(=C/C=[N+](C)c1ccccc1)OCCCS(=O)(=O)[O-])c1ccccc1	·	-18%	·	·	8%	·	0%	1%
CCOC(=O)c1cccc(NC(=O)C2CCN(c3ncnc4c3nc3n4CCCCC3)CC2)c1	·	·	·	10%	0%	·	?	16%
COc1ccccc1N1CCN(Cc2cc(COC(C)C)c3cccnc3c2O)CC1	8%	4µM*	?	·	·	-0.4%	-16%	·
OCCN=C(c1ccccc1)C12CN3CN(CN(C3)C1)C2	0%	27%	3%	-2%	4%	0.1%	13%	9%
CCc1noc(C)c1C(=O)N1CCSC1=Nc1cccc(Cl)c1C	·	?	?	-44%	-9%	·	?	-2%
COCCNC(=O)C(=O)N/N=C(\C)CC(=O)Nc1cccc(C(F)(F)F)c1	·	?	13%[46.1 µM]	-3%	7%	·	-4%	0%
Cc1ccc(C)c(NCC(=O)c2ccc(Cl)cc2)c1	·	-13%[46.1 µM]	-10%[46.1 µM]	-10%	-8%	·	-6%	-2%
COc1ccccc1-n1c(C)nc2cc(C(=O)O)ccc21	12%	15%	9%	6%	4%	4.7%	·	2%
CCCCOc1ccc(C(=O)NCC(=O)NCCOc2ccccc2)cc1	·	14%[46.1 µM]	-13%	·	5%	·	20%	-2%
CCOc1cc(/C=N/n2cnnc2)ccc1O	-2%	-1%	15%	0%	-8%	1.0%	·	1%
COc1ccccc1C(=O)NCC(=O)n1nc(C)cc1C	19%	?	11%	-54%	-10%	-1.9%	24%	4%
CN1Cc2cccnc2N(C)Cc2cc(Cl)ccc21	-4%	?	?	3%	-26%	-2.6%	?	24%
N#Cc1ccc(OCC(=O)OCC(=O)c2ccc[nH]2)cc1	·	1%	-1%	·	4%	·	-6%	-20%
CCCN(CC(=O)Nc1ccccc1OC)C(=O)c1cc2ccccc2o1	·	?	-2%	-5%	19%	·	-10%	-1%
O=C(CSc1ncnc2c1oc1ccccc12)N1CCN(c2ccccc2)CC1	·	1%	6%	-6%	7%[3.69 µM]	·	0%	·
CCOC(=O)C1(c2ccccc2)CCN(Cc2cccc(C(=O)O)c2)CC1	4%	10%&10%	-1%	0%	-10%	4.7%	-16%	-2%
COc1cccc(C(=O)c2c[nH]c(C(=O)NCCCN3CCOCC3)c2)c1	·	7%	0%	-4%	7%	·	-1%	-1%
CCc1nc2c(c(=O)[nH]1)C(CC)(CC)Cc1ccccc1-2	·	13%	?	4%	-8%	·	-7%	-2%
Cc1cc(C)c(C(=O)C(C)OC(=O)c2ccccn2)cc1C (configuration not stated)	·	·	·	-18%	-5%	·	-13%	2%
O=C(NCCSCc1ccco1)Nc1ccccc1	-13%	7%	10%	-17%	-1%	-2.6%	94%[activator]	-8%
O=C(NC(N1CCOCC1)C(Cl)(Cl)Cl)c1ccc(F)cc1 (configuration not stated)	·	3%[46.1 µM]	·	7%	-14%	·	-10%	0%
Cc1ccc(S(=O)(=O)Nc2nc(C)cc(NCCN)n2)cc1	-5%	17%	3%	-1%	5%	12%	·	0%
COc1ccc(N(CC(=O)N2CCc3ccccc32)S(=O)(=O)c2c(C)nn(C)c2C)cc1	?	-5%	·	-2%	13%	-1.4%	-7%	0%
CCCN(C(=O)Cn1ncc2c1-c1ccccc1OC2)c1cccc(C)c1	11%	-2%[46.1 µM]	·	·	·	-5.8%	0%	·
CC(=O)N(C(C)=O)c1c(N2CCOCC2)c2ccccc2oc1=O	-2%	5%	2%	7%	10%	0.3%	20%	3%
CCc1ccc(NC(=O)CCCNC(=O)Cn2cnc3sc(C)c(C)c3c2=O)cc1	·	?	?	4%	-6%	·	-3%	0%
N=c1n(CCc2ccccc2)c2ccccc2n1Cc1ccccc1F	1%	5.2µM*	?	-16%	-9%	-3.6%	-25%	-15%
OCC1CN1C1CCCCC1 (configuration not stated)	·	18%	5%	·	-4%	·	-20%	·
CCC(NC(=O)c1ccccc1NC(=O)c1ccccc1)C(=O)OC (configuration not stated)	·	·	·	-61%	4%	·	-14%	-5%
COc1ccc(/C=C2\CCn3c2nc2ccccc2c3=O)cc1OC	·	·	·	6%	0%	·	46%[activator]	4%
Cc1cc(C)n(C(=O)C23CC4CC(CC(C4)C2)C3)n1	13%	2%	·	-6%	·	0.4%	·	3%
COc1ccc(C2CC(c3ccc([N+](=O)[O-])cc3)=NN2C(=O)c2ccccc2)cc1OC (configuration not stated)	·	·	·	7%	0%	·	-16%	-1%
CC(=O)Nc1c(C)nn(-c2ccc([N+](=O)[O-])cc2)c1C	·	19%[46.1 µM]	2%[46.1 µM]	1%	5%	·	-7%	2%
COc1ccccc1NC(=O)CSCc1cc(=O)c2c(C)cc(C)cc2[nH]1	-2%	·	-18%[46.1 µM]	·	·	-3.3%	-11%	·
CN(C)c1ccc(C=c2c3cc(O)ccc3n3c2cc(-c2ccccc2)[n+]3C)cc1	·	?	?	·	-11%	·	-21%	·
CSC(SC)=C(C(C)=O)C(=O)c1ccc(C)cc1	-12%	24%	-2%	-16%	4%	-6.5%	24%	-6%
CCOc1ccc(C2CC(c3cccc(C)c3)n3nc(N)nc3N2)cc1 (configuration not stated)	-6%	0%	-17%	18%	1%	-1.6%	0%	7%
COc1ccc(C(CNC(=O)c2cc3ccccc3cc2O)N2CCOCC2)cc1 (configuration not stated)	·	?	?	·	-15%	·	-18%	2%
COCCN(C(=O)COC(=O)C1COc2ccccc2O1)c1c(N)n(Cc2ccccc2)c(=O)[nH]c1=O (configuration not stated)	·	-1%	9%	·	2%	·	-12%	-1%
COC(=O)CCN(C(=O)c1ccc2c(c1)OCO2)c1ccccn1	-2%	-22%	9%	2%	7%	7.5%	-25%	0%
Cc1ccc(NC(=O)Cn2c(O)c(N=NC(=O)c3cc4ccccc4cc3O)c3ccccc32)cc1	10µM*	?	?	14%	2%	-9.2%	-28%	4%
Cc1onc(-c2ccccc2Cl)c1C(=O)Nc1ccc(OCC(=O)N2CCOCC2)cc1	17%	10%&10%	1%	5%	1%	3.4%	9%	22%
CCn1cnc2cc(NCc3nc4ccccc4n3C)ccc21	-12%	?	?	-4%	-19%	0.0%	·	-6%
